Arbovirus anti – arbovirus infection inhibition; arbovirus infection cell-based antiviral screen; inhibition, % at 10 µM; actives 0.37% (n = 200,000); AID 1251;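 active means inhibition from about 30%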;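 further: bluetongue infection of BSR cells; cell survival read as ATP light after 72 h; 0% = infected wells without compound and 100% = uninfected wells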
RecA splice inh – blocks M. tuberculosis RecA intein splicing; cell-free RecA intein splicing, fluorescence; inhibition, %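 (about 9 µM by stock and volumes)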; actives 0.75% (n = 290,000); AID 2221; in the data active means inhibition above about 30%; inconclusive means no clear call, values can overlap the other calls;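 further: 0% = vehicle wells and 100% = reference inhibitor control wells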
Target sequence (P9WHJ3 whole entry, looked up, canonical isoform): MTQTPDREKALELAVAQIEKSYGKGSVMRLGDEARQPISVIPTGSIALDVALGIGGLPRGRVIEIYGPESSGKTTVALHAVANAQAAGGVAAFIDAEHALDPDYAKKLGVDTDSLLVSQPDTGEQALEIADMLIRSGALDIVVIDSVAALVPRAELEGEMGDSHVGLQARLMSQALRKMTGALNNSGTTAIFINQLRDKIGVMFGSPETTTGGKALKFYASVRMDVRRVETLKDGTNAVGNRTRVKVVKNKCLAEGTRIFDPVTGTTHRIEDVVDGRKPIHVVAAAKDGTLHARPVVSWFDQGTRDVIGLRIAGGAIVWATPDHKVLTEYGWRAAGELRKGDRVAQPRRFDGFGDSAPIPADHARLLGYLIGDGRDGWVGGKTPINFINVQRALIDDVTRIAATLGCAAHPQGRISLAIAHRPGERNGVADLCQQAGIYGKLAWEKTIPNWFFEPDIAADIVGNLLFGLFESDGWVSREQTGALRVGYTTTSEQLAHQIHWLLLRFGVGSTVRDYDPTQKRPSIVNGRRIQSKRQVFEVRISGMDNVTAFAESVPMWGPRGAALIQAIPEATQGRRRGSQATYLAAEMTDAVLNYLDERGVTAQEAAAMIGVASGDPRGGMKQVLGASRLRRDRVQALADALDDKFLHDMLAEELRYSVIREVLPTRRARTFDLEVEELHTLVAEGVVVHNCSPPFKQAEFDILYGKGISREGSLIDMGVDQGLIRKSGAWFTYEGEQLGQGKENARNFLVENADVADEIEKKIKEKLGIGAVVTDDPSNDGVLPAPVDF
Mtb betalactam – beta-lactam sensitization of Mtb H37Rv; AID 434955; actives 0.27% (n = 330,000); inhibition, % at 25 µM; M. tuberculosis H37Rv growth with meropenem, percent inhibition; hits of this screen are not shown here;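 active means about 74% or more and at least 40 points above the plate without the antibiotic, then above 30% in a dose series; inconclusive means first-round hits that could not be retested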;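 further: growth measured after seven days incubation then overnight dye step; 0% = bacteria only wells and 100% = bacteria with antibiotic; twin plates without the antibiotic show which effects depend on it; some results filed as inactive read as strong as hits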
Mtb growth – M. tuberculosis H37Rv growth inhibitors, H37Rv strain (AID 1626) | one-dose inhibition, % at 10 µM; IC50 in µM for titrated hits | M. tuberculosis H37Rv growth inhibition; higher % means a stronger effect | actives 0.95% (n = 220,000);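 active means confirmed in a dose series; inconclusive means inhibition above 80% but not taken into the dose series; inactive means below 80% or under 30% at every dose of the series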;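 further: bacteria incubated seven days before Alamar blue readout; 0% = bacteria only wells and 100% = bacteria with antibiotic wells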
YopH PTP inh – YopH (Yersinia) phosphatase inhibition. fluorescence Ex485/Em525. inhibition, %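 (about 10 µM by stock and volumes)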. actives 0.16% (n = 140,000). AID 898;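 active means inhibition of 50% or more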;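 further: controls were vehicle for no effect and minimum signal wells for full effect; inactives centre near -20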
Arbovirus anti repeat – recorded beside Arbovirus anti, whose call it bears; inhibition, %; measured here: 10K subset replicate screen; many hits read low in the repeat;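 first of two repeat runs on a subset; 0% = infected and 100% = uninfected wells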
* marks the source's active call; other numbers are inactive results; ? = inconclusive; · = not tested or not shown. The list is partial (hit frequency here may not be typical).

SMILES	Arbovirus anti	RecA splice inh	Mtb betalactam	Mtb growth	YopH PTP inh	others
CCOc1ccc(N/C=C/C(=O)c2ccc(OC)cc2)c([N+](=O)[O-])c1	3	-2.2	4	0%	-38
COc1cccc(CNC(=O)C2CCN(S(=O)(=O)c3cccc4nonc34)CC2)c1	·	-0.8	-2	·	·
CCCNc1[nH]c(=O)n(C)c(=O)c1N=O	8	-3.5	-4	-11%	-29
O=C(c1ccco1)N1CCN(Cc2nnnn2CC2CCCO2)CC1 (centres undefined)	2	5.8	-3	-6%	·
COc1ccc(-n2nc3c(c2NC(=O)CC(C)C)CS(=O)C3)cc1 (centres undefined)	·	6.5	3	·	·
CCc1c(C)sc(NC(=O)c2cc(-c3ccco3)on2)c1C#N	16	-0.2	67	-4%	-52
CC(OC(=O)c1ccc2ccccc2n1)C(=O)c1ccccc1 (centres undefined)	5	-0.2	0	2%	·
CCC1(C)Cc2ccccc2-c2nc(NCCO)[nH]c(=O)c21 (centres undefined)	-9	1.4	-9	-9%	12
Cc1ccc(Nc2cc(C)nc(N3CCOCC3)n2)c(C)c1	22	-1.0	0	8%	-17
Cn1c(=O)n(CC(=O)N2CCOCC2)c2ccccc21	-7	-6.1	-4	-15%	-32
CC(=O)NC(c1ccc(C(C)C)cc1)c1ccc2cccnc2c1O (centres undefined)	·	-0.9	-2	·	·
Cc1cc(C)c(NC(=O)CSc2nc3ccc(N4C(=O)c5ccccc5C4=O)cc3s2)c(C)c1	-3	-2.0	0	9%	·
C=C(C)CSc1[nH]c(=O)cc(C)c1C#N	14	0.8	-4	-1%	·
CC1(C)CC(=O)C2=C(C1)Nc1ccccc1N(C(=O)C1CC1)C2c1ccco1 (centres undefined)	-4	2.5	-2	-6%	·
CCOC(=O)C1(CCCc2ccccc2)CCN(C(=O)CCCn2cncn2)CC1	5	-2.6	-6	3%	·
O=C(Nc1ccc(F)cc1)N1CCN2C(=O)c3ccccc3C12c1ccccc1 (centres undefined)	-15	16	11	1%	6
Cc1ccc(OC(=O)c2cccc(C(=O)Oc3ccc(C)cn3)n2)nc1	17	-11	0	-5%	-41
O=C(CO)N/N=C/c1c2ccccc2cc2ccccc12	-10	-4.1	1	0%	·
COc1cccc(-c2cc(C(=O)NCc3ccco3)no2)c1	3	-0.2	-1	3%	-11
CC(Sc1nc(-c2ccc(F)cc2)cs1)C(=O)N1c2ccccc2CC1C (centres undefined)	20	9.3	1	9%	-14
CC(=O)c1ccc(NC(=S)NC2CCCC(C)C2C)cc1 (centres undefined)	12	2.7	96	?	·
COc1ccc(OC)c(Cc2nnc(CCC(=O)NC3CCCCC3)o2)c1	-2	-3.7	-9	3%	·
COc1ccc(NS(=O)(=O)c2ccc(N3CCN(CCO)CC3)c([N+](=O)[O-])c2)cc1	·	1.1	-2	·	·
CC(=O)c1sc2nc(CSc3nncn3C)[nH]c(=O)c2c1C	2	0.7	-2	2%	·
CCOc1ccc(CC(=O)Nc2c(C(N)=O)oc3ccccc23)cc1OCC	1	-0.5	-3	-3%	23
CC1=C(OC(=O)c2ccccc2)C(C)(C)C(c2ccccc2)OC1=O (centres undefined)	1	1.4	-6	22%	-9
CCn1c(=O)c(C(=O)NCc2ccccn2)c(O)c2ccccc21	-5	·	13	4%	-51
Cc1nc(Cl)c(C(=O)NC(=O)NCc2ccccc2)c(C)c1Cl	-9	0.3	-1	1%	-6
COc1cccc(NC(=O)CSc2nc3c(sc4ccccc43)c(=O)n2CCCN2CCCC2)c1	·	4.6	37	·	·
O=C(Nc1cccc(C(F)(F)F)c1)c1cccnc1N1CCCC1	4	3.1	-1	-4%	9
CCN(Cc1ccccc1)C(=O)c1ccc(NC(=O)c2ccc(OC)cc2)cc1	·	-2.9	37	·	·
CC(C)COc1ccc(-c2nn(-c3ccccc3)cc2C(=O)Nc2nccs2)cc1	6	0.2	99	?	-9
Cc1c(NC(=O)c2ccc([N+](=O)[O-])o2)cccc1-c1nc2ncccc2o1	·	-5.9	100	·	·
COc1cc2c(cc1OC)CN(C(=O)CSc1nnc3scc(-c4ccccc4)n13)CC2	6	1.9	-4	1%	-4	Arbovirus anti repeat=1
COc1cc(C(=O)N2CCC(n3c(C)nc4cc(F)ccc43)CC2)cc(OC)c1OC	1	-1.7	-6	-14%	-3
CCOCCn1cnc2sc(C(=O)Nc3nc(C)c(C(=O)OCC)s3)c(C)c2c1=O	·	-0.5	0	22%	-35
Cc1nnc(C)n1/N=C/c1ccccn1	-5	-0.4	-13	-7%	-10
COc1ccc(-n2c(COc3ccccc3)nnc2SCc2ccc(C#N)cc2)cc1	-6	13	1	6%	1
O=S(=O)(c1cccs1)N1CN(CC2CCCO2)c2nc3ccccc3nc21 (centres undefined)	4	0.2	5	3%	-17
COc1ccc2[nH]c(=O)c(CN(Cc3cccs3)S(=O)(=O)c3c(C)ccc4nsnc34)cc2c1	19	1.9	2	-1%	-30
Nc1[nH]c(=S)[nH]c(=O)c1-c1ccccc1	7	·	-2	-6%	-39
CC(C)c1ccc(OCC(=O)Nc2ccccc2C(=O)N2CCOCC2)cc1	·	3.0	6	·	·
COc1cccc(-c2nnc(NC(=O)c3ccc(S(=O)(=O)N4CCOCC4)cc3)o2)c1	-22	·	92	79%	-40
Cc1oc(-c2ccccc2F)nc1CS(=O)(=O)CC(=O)N1CCOCC1	-6	0.6	-1	-6%	-41
Cc1ccc(C=Nc2ccc(N(C)C)cc2)o1	-3	-1.4	27	-3%	-11
CCCCCN(C(=O)CCC(=O)OCCOc1ccc(OCC)cc1)c1c(N)n(CCCC)c(=O)[nH]c1=O	·	-2.2	-3	·	·
Cc1ccccc1N1C(=O)N(c2cccc(C(F)(F)F)c2)C2CS(=O)(=O)CC21 (centres undefined)	4	-4.8	-11	8%	-5
N/C(=N\O)c1ccc(Cl)cc1Cl	·	1.0	-3	-12%	·
Nc1cccc(-c2nc3ncccc3o2)c1	·	0.6	-15	·	·
COc1ccccc1S(=O)(=O)Nc1cc(C)nn1-c1ccc(C)cc1	·	-3.0	16	·	·
Cn1c(=O)cc(Nc2ccccc2)[nH]c1=O	·	-0.9	-1	·	·
CCC(NC(=O)c1ccccc1Br)c1ccccc1 (centres undefined)	4	-2.6	-2	-4%	·
O=C(CCSc1ccccc1)NCCN1CCOCC1	-1	-1.6	3	-4%	-1
CCOc1ccc(N(CC(=O)NC(C)(C)C)S(=O)(=O)c2c(C)noc2C)cc1	4	0.3	1	-1%	-32	Arbovirus anti repeat=-2
Cc1ccc(NC(=O)c2cc(N3C(=O)C=CC3=O)ccc2N2CCOCC2)cc1Cl	14	3.7	2	-5%	-27
O=C(N/N=C\c1ccc(F)cc1)c1cc(OCC(F)(F)F)ccc1OCC(F)(F)F	6	-4.2	10	-3%	-35
CCCn1c(C)cc(C(=O)COC(=O)c2ccc[nH]c2=O)c1C	0	-1.5	-11	5%	-4
CC(C)CC(NC(=O)C1CCC(C)CC1)C(=O)NCCN1CCOCC1 (centres undefined)	·	1.3	-1	·	·
CCCc1cc(=O)oc2cc(OC(C)C(=O)NC3CC(C)(C)NC(C)(C)C3)ccc12 (centres undefined)	·	-0.9	0	·	·
CCN(CC)CCNC(=O)c1cc2cc(Br)ccc2s1	-34	0.8	-6	2%	·

Two entries picked at random from those above, as already listed:
SMILES	Arbovirus anti	RecA splice inh	Mtb betalactam	Mtb growth	YopH PTP inh	others
CC(C)CC(NC(=O)C1CCC(C)CC1)C(=O)NCCN1CCOCC1 (centres undefined)	·	1.3	-1	·	·
COc1ccccc1S(=O)(=O)Nc1cc(C)nn1-c1ccc(C)cc1	·	-3.0	16	·	·

Later entries
SMILES	Arbovirus anti	RecA splice inh	Mtb betalactam	Mtb growth	YopH PTP inh	others
CCOC(=O)C1CCN(C(=O)CCCn2nc(C)c3c(C)n(-c4ccc(C)cc4)nc3c2=O)CC1	·	-2.7	-3	·	·
CN(C)S(=O)(=O)c1cccc(C(=O)N(Cc2ccc(F)cc2)Cc2ccco2)c1	5	2.8	-7	3%	-17
CCOC(=O)C1CCN(c2cc(=O)n(-c3ccc(OC)cc3)c(=O)[nH]2)CC1	4	0.1	5	-13%	-22
COc1ccc(C(=O)NCc2nnc(SCC(=O)N3CCOCC3)o2)cc1OC	6	-0.9	-5	1%	·
CCOC(=O)CNC(=O)CCc1nnc2ccc(N3CCC(C)CC3)nn12	·	-0.9	-5	·	·
CC1CC(C)(C)NCc2ccccc21 (centres undefined)	10	2.5	-6	-10%	-4
O=C1CC(C(=O)N2CCN(Cc3ccccc3)CC2)CN1Cc1ccccc1 (centres undefined)	·	0.8	-4	·	·
Cc1cccc(N2C(=O)C3C4CC(C(Br)C4Br)C3C2=O)n1 (centres undefined)	1	2.1	-5	-8%	-15
N/C(=N\OC(=O)/C=C/c1ccc(Br)cc1)c1ccccn1	3	1.3	50	7%	-23
CN(C)/N=C/C=C1\CCC/C(=C/c2cccs2)C1=O	·	1.3	2	-3%	·
CCOC(=O)c1cc(CC)sc1NC(=O)C(c1ccccc1)c1ccccc1	-9	0.2	-1	-5%	-133
NC(=O)COC(=O)c1ccc(Oc2ccccc2)cc1	12	1.9	9	1%	-34
CC(=O)N1CC(=O)Nc2ccc(Cl)cc2C1c1ccc(F)cc1 (centres undefined)	-11	-1.1	-10	-4%	-51
COc1ccc(/C(N)=N/OC(=O)C2CCC(=O)N2S(=O)(=O)c2ccc(C)cc2)cc1 (centres undefined)	-2	7.2	-7	-3%	2
CCN=C1S/C(=C\c2cc(OCC)c(O)cc2Br)C(=O)N1CC	-2	1.5	-3	2%	-28
C=CCOc1ccc(S(C)(=O)=O)cc1	·	-0.8	1	·	·
COc1ccc(C2CC(c3ccc(Br)cc3)=NN2C(=O)c2cccnc2)cc1 (centres undefined)	-7	18	51	23%	-25
CCOC(=O)/C(N=Nc1ccc(F)cc1)=C(/O)c1ccc([N+](=O)[O-])cc1	-6	-2.4	8	·	62*
CCCOCC(O)CC(CC)C(=O)NNC(=S)Nc1ccccc1 (centres undefined)	3	-2.3	0	9%	·
O=c1c2ccccc2nc(/C=C/c2ccc(O)cc2)n1-c1cccc(O)c1	-7	-9.6	1	-2%	·
Cc1cc(C)c(S(=O)(=O)NCC(=O)NCc2cc(=O)n(C)c(=O)n2C)c(C)c1	·	0.4	-2	·	·
Cc1ccc(C)c(/C(O)=C2\C(=O)C(=O)N(Cc3cccnc3)C2c2cccnc2)c1 (centres undefined)	3	2.2	-1	-3%	-21
COCCNC(=O)Cn1c(=O)n(Cc2ccc(C(=O)NCc3ccco3)cc2)c(=O)c2ccccc21	5	-0.7	-4	-4%	-11
CCN(CC)c1nc(OC)nc(-n2nnc(C(C)=O)c2C)n1	20	-3.9	-10	-10%	-12
O=C(Nc1cnn(Cc2ccccc2)c1)NC12CC3CC(CC(C3)C1)C2	-15	2.7	97	-11%	0
COc1ccc2c(c1OC)C(=O)OC2Nc1nc(-c2ccc([N+](=O)[O-])cc2)cs1 (centres undefined)	·	·	75	65%	·
CCOc1ccc(-n2nnnc2SCC(=O)Nc2cccc(O)c2)cc1	·	-1.3	1	·	·
NS(=O)(=O)c1ccc(CCNC(=O)CCCC2=NS(=O)(=O)c3ccccc3N2)cc1	3	-1.5	8	0%	-36
CC(=O)N(CC1CCCO1)c1nnc(-c2cnccn2)s1 (centres undefined)	20	-3.3	-5	0%	-32
CCN(C(=O)COC(=O)c1cc(S(=O)(=O)Nc2c(C)n(C)n(-c3ccccc3)c2=O)ccc1Cl)C1CCCCC1	9	1.7	-3	-4%	·
O=C(c1ccccc1)N1CCN(C(=O)c2ccc(OC(F)(F)F)cc2)CC1	15	1.5	3	-5%	13
CN(C)C(CNC(=O)CNC(=O)Cc1cccc2ccccc12)c1ccccc1 (centres undefined)	·	1.6	-6	·	·

6 consecutive compounds already listed, for reference:
SMILES	Arbovirus anti	RecA splice inh	Mtb betalactam	Mtb growth	YopH PTP inh	others
CCN(CC)c1nc(OC)nc(-n2nnc(C(C)=O)c2C)n1	20	-3.9	-10	-10%	-12
O=C(Nc1cnn(Cc2ccccc2)c1)NC12CC3CC(CC(C3)C1)C2	-15	2.7	97	-11%	0
COc1ccc2c(c1OC)C(=O)OC2Nc1nc(-c2ccc([N+](=O)[O-])cc2)cs1 (centres undefined)	·	·	75	65%	·
CCOc1ccc(-n2nnnc2SCC(=O)Nc2cccc(O)c2)cc1	·	-1.3	1	·	·
NS(=O)(=O)c1ccc(CCNC(=O)CCCC2=NS(=O)(=O)c3ccccc3N2)cc1	3	-1.5	8	0%	-36
CC(=O)N(CC1CCCO1)c1nnc(-c2cnccn2)s1 (centres undefined)	20	-3.3	-5	0%	-32

Screening data as filed in PubChem.
